VACV mCherry inh = qHTS for Stage-Specific Inhibitors of Vaccinia Orthopoxvirus: mCherry Reporter Primary qHTS; Vaccinia virus mCherry reporter infection, fluorescence; about a quarter of the inactives have no number; Potency, µM (doses to about 36.5 µM), for inactives: at the highest dose activity change, negative = inhibition, most hits filed as inhibitors; hit rate 0.63% among 310,000; active = well fitted inhibition curve with a large enough effect; inconclusive = small, poorly fitted or top-dose-only effect; inactive = no such curve, though single readings can be large or run the other way; tested in A549 cells; further: nearly all actives have a fitted effect of over 35% in size; inactives centre near -10
VACV Venus inh = qHTS for Stage-Specific Inhibitors of Vaccinia Orthopoxvirus: Venus Reporter Primary qHTS. Vaccinia virus Venus reporter expression, fluorescence. Potency, µM (series often up to 36.5 µM), for inactives: at the top dose activity change, negative = inhibition, usual class: inhibitors. hit rate 0.46% among 330,000. AID 720580, 2013; active means well fitted inhibition curve with a large enough effect; inconclusive means small, poorly fitted or top-dose-only effect; inactive means no such curve, though single readings can be large or run the other way; tested in A549 cells; further: nearly all actives have a fitted effect of over 30% in size; inactives centre near -10
Active calls of the source: *; i = inactive; ? = inconclusive; nt = not tested or not shown; [ ] = remark or other dose. On the % scale 0 is the no-effect control and ±100 the full control effect; potency means the concentration at half of the fitted maximal effect.

1	CCN(CC)S(=O)(=O)c1ccc(N2CCOCC2)c(NC(=O)c2ccc3c(c2)OCCO3)c1
2	CC(NC(=O)c1ccco1)C(c1cccs1)N1CCN(c2ccccc2)CC1 (configuration not stated)
3	CC(=O)c1ccc(N2CCN(C(=O)c3ccc(Cl)c(NC4=NC5CS(=O)(=O)CC5S4)c3)CC2)cc1 (configuration not stated)
4	Cn1c(=NC(=O)C2=NNC(=O)CC2)sc2ccccc21
5	Clc1ccc(-c2noc(CN3CCN(c4ccccc4)CC3)n2)cc1
6	O=C(O)c1ccc(-c2nc(-c3ccccc3)c(-c3cccs3)[nH]2)cc1
7	CN(C)c1ccc(C=NNC(=O)c2cccnc2)cc1
8	O=C(COC(=O)c1ccccc1C(=O)N1CCN(c2ccccc2)CC1)Nc1ccc(F)cc1
9	O=C(Nc1ccc2c3c(cccc13)CC2)c1ccc(Br)o1
10	CN(C)S(=O)(=O)c1ccc2c(c1)Cc1cc(S(=O)(=O)N(C)C)ccc1-2
Assay by compound	1	2	3	4	5	6	7	8	9	10
VACV mCherry inh	i	27.1%	i	-14.0%	nt	-0.5%	-25.7%	?	-23.2%	-16.1%
VACV Venus inh	-13.3%	-1.5%	-5.4%	-9.1%	-21.2%	-2.0%	-13.8%	?	-8.1%	-22.3%

11	O=C(Nc1ccc(Cl)cc1)N1CCCN(c2ccc(C(F)(F)F)cc2[N+](=O)[O-])CC1
12	CN(CC(=O)Nc1ccc(N2CCOCC2)cc1)C(=O)COc1ccccc1F
13	CC(=O)Nc1cccc(-c2ccnc3c2CC(C(=O)Nc2cccc(Oc4ccccc4)c2)O3)c1 (configuration not stated)
14	Cc1c(NC(=O)c2nc3ccccc3nc2N2CCCCC2)cccc1[N+](=O)[O-]
15	O=C(/C=C/NNC(=O)c1cccc(Br)c1)c1ccccc1
16	COc1ccc(NC(=S)NNC(=O)COc2ccc(Cl)cc2Cl)cc1
17	CC(C)(C)OC(=O)N1CCCC(C(=O)Nc2ccc(C(=O)NC3CC3)cc2)C1 (configuration not stated)
18	O=C(NCc1ccco1)c1cnn2c(C(F)(F)F)cc(-c3ccccc3)nc12
19	C/C(=N\NC(=O)c1c(Br)c(C)nn1C)c1cccc(NC(=O)c2ccccc2C)c1
20	CC(C)(C)OC(=O)N1CCCC1C(=O)N1CCCC1C(=O)N1CCCC1C(=O)O (configuration not stated)
Assay by compound	11	12	13	14	15	16	17	18	19	20
VACV mCherry inh	i	i	10.5%	-7.1%	nt	i	5.6%	-14.1%	-20.6%	-0.7%
VACV Venus inh	-17.0%	5.2%	-16.7%	-2.1%	-10.4%	-8.7%	6.0%	?	-13.1%	-6.0%

21	COCc1cc(C)nc(N/N=C/c2ccc(-c3ccc(Cl)cc3[N+](=O)[O-])o2)c1C#N
22	NC(=O)c1cccnc1Nc1ccccc1Cl
23	CC(C)C[C@@H](CO)NC(=O)CC[C@H](NC(=O)OC(C)(C)C)C(=O)N(Cc1ccccc1)Cc1ccccc1
24	CCOc1ccccc1C(=O)NCCNC(=O)c1ccccc1OCC
25	Cc1ccc(C2C(C#N)=C(N)Oc3c2c(=O)n(C)c(=O)n3C)cc1 (configuration not stated)
26	O=C(NCCN1CCC(n2c(=O)[nH]c3ccccc32)CC1)c1cccc(F)c1
27	CCCn1c2ccccc2c2cnn(CC(=O)NCC3CCN(Cc4ccccc4C)CC3)c(=O)c21
28	COc1ccc(-c2noc(-c3ccc(NCCc4ccccc4)c([N+](=O)[O-])c3)n2)cc1
29	O=C(NCCc1ccccc1)c1ccc(=O)[nH]c1
30	CC(C)c1ccc(C2NC(=O)NC3=C2CCc2ccccc23)cc1 (configuration not stated)
Assay by compound	21	22	23	24	25	26	27	28	29	30
VACV mCherry inh	-5.9%	-13.8%	-9.1%	i	-14.1%	-15.9%	-26.7%	-6.2%	-10.2%[1.46 µM]	?
VACV Venus inh	-1.8%	2.7%	?	-6.0%	-7.6%	-5.8%	-19.8%	0.3%	-11.6%	-19.2%

31	COCCn1c(CNc2ccc(F)cc2)nnc1SCC(=O)Nc1ccc(OC)cc1OC
32	CCCCOc1ccc(CNC(=O)CN2C(=O)CCn3nc(-c4cn(C)c5ccccc45)cc32)cc1
33	COc1ccc(Nc2oc(COc3ccccc3OC)nc2C#N)cc1
34	Cc1ccc(-c2csc(N3CCN(c4cc5c(cc4Cl)nc(C(C)N)n5CCCO)CC3)n2)cc1 (configuration not stated)
35	COc1cc(OC)cc(N(C(=O)CNC(=O)c2ccco2)C(C(=O)NCC2CCCO2)c2ccccc2)c1 (configuration not stated)
36	N#Cc1ccccc1NC(=O)C(=O)NCCc1csc2nc(-c3cccc(F)c3)nn12
37	OCC[C@@H]1C[C@@H](O)[C@H](O)[C@@]2(CCc3ccccc3O2)O1
38	Cc1ccc2oc3c(c(=O)c2c1)C(c1ccccc1F)N(CCCN1CCOCC1)C3=O (configuration not stated)
39	O=C(NCc1ccccc1)c1cc(Sc2cccc(Cl)c2)nc2ccccc12
40	COc1ccc(CCN2CC(C(=O)N3CCC(OC)CC3)CCC2=O)cc1 (configuration not stated)
Assay by compound	31	32	33	34	35	36	37	38	39	40
VACV mCherry inh	i	-29.2%	-12.4%	i	3.7%	i	i	-13.8%	-19.0%	i
VACV Venus inh	-20.4%	-17.2%	-3.4%	-16.6%	4.5%	-17.2%	-10.8%	1.4%	-11.6%	-3.2%

41	O=C(CSc1nccn1-c1cccc(F)c1)NC1CCCC1
42	O=C1c2ccccc2C(Nc2cccnc2)N1Cc1ccc2c(c1)OCO2 (configuration not stated)
43	O=C(NCc1ccc2c(c1)OCO2)C1CC(=O)N(C2CCCC2)C1 (configuration not stated)
44	Cc1ccc(S(=O)(=O)N2CCCCC2)cc1NS(=O)(=O)c1ccccc1F
45	CCOc1ccc(NC(=S)NCCCN2CCOCC2)cc1
46	CC(=O)c1c(C)[nH]c(C(=O)/C(C#N)=C/c2cccc(C)c2)c1C
47	CCCCc1ccc(C(=O)Nc2ccc3nc(N4CCN(CC)CC4)cc(C)c3c2)cc1
48	Cc1ccc(NC(=O)c2cnc(SCC(=O)NCC3CCCO3)n(C)c2=O)cc1 (configuration not stated)
49	COc1ccc(C(=O)c2ccc3oc(-c4ccc(OC)cc4)c(-c4ccc(O)cc4)c3c2)cc1
50	O=C(NCCc1ccc(Cl)cc1)c1cccs1
Assay by compound	41	42	43	44	45	46	47	48	49	50
VACV mCherry inh	-16.5%	i	-16.1%	i	2.3%	i	-9.6%[7.34 µM]	-1.8%	-10.9%	-0.6%
VACV Venus inh	-12.3%	3.9%	-6.3%	-0.7%	-2.3%	6.2%	-12.2%[7.34 µM]	-9.1%	-28.7%	-11.8%

51	Cc1[nH]c2ccc(C(=O)N3CCCCC3)cc2c1C
52	CC(C)c1ccc(N=C(N)N=C(N)N)cc1
53	COc1ccc(NC(=O)C(NC(=O)/C=C\c2ccc3c(c2)OCO3)c2ccccc2)cc1 (configuration not stated)
54	COC(=O)c1ccc(C(=O)Nc2ccc(C(C)C)cc2N)cc1
55	CC(C)(C)C(=O)O/N=C(\N)c1c(Cl)cccc1Cl
56	CCc1nc(Nc2cccc(F)c2)c2oc3ccccc3c2n1
57	COc1ccc(OC)c(NC(=O)COc2ccc(S(=O)(=O)N3CCCC3)cc2)c1
58	CC(=O)Nc1ccc(C2=CC(=O)C[C@H](c3ccc4c(c3)OCO4)C2)cc1
59	CCC1CC(/C(C)=N/NC(N)=O)OC1=O (configuration not stated)
60	COc1ccc(-c2noc(CSCC(=O)Nc3cc(OC)c(OC)c(OC)c3)n2)cc1OC
Assay by compound	51	52	53	54	55	56	57	58	59	60
VACV mCherry inh	i	-7.5%	-1.4%[7.34 µM]	1.1%	i	-15.9%	-11.9%	?	-13.0%	-14.0%
VACV Venus inh	-4.5%	-14.6%	0.3%[7.34 µM]	-8.1%	-6.5%	-5.8%	-14.8%	1.6%	-7.3%	-6.0%

61	O=C(/C=C/c1ccc(OCc2ccccc2)c(OCc2ccccc2)c1)c1cccnc1
62	CCN1C[C@@H]2[C@@H]3C(=O)N(Cc4ccccc4)C(=O)[C@@H]3[C@](C)(C1=O)N2C(=O)c1ccc(C(F)(F)F)cc1
63	CC1(C)CC(=O)c2sc(NC(=O)Cc3cccs3)nc2C1
64	COc1cccc(CC(=O)Nc2ccc(S(=O)(=O)N3CCCCC3)cc2)c1
65	CCc1c(C(=O)NNC(=S)NCCc2ccccc2)csc1C
66	Cc1ccc(NC(=O)C2CCCN(S(=O)(=O)c3ccc4[nH]c(=O)ccc4c3)C2)cc1Cl (configuration not stated)
67	Cc1ccc(OCC(=O)NC2CC(C)(C)NC(C)(C)C2)c(C)c1
68	O=S(=O)(c1ccc2oc(=S)[nH]c2c1)N1CCOCC1
69	O=C(NCCNC(=O)c1ccc(Br)o1)c1ccc(Br)o1
70	CCC(=O)Nc1ccc(NC(=O)c2cccc3ccccc23)cc1
Assay by compound	61	62	63	64	65	66	67	68	69	70
VACV mCherry inh	i	?	-10.1%	-28.3%	nt	-12.8%	2.1%	-9.1%	-1.5%	-9.1%
VACV Venus inh	-9.9%	-15.6%	-4.8%	-9.7%	-21.5%	-11.0%	-7.7%	1.2%	-5.4%	-2.5%

71	Cc1ccc(C(=O)Nc2ccc3oc(-c4ccccc4C)nc3c2)cc1
72	Cc1ccc(/C=C/C2=NN(Cc3ccc(Cl)c(Cl)c3)C(=O)CC2)cc1
73	Cc1cccc(NC(=O)CCc2ccccc2)c1
74	COC(=O)c1oc2ccc(Br)cc2c1NC(C)=O
75	Cc1onc(-c2ccccc2Cl)c1C(=O)O/N=C(\N)c1cccc([N+](=O)[O-])c1
76	C=CCNC(=O)NC(=O)COn1nnc2ccc(S(=O)(=O)N(C)C)cc21
77	CN(CCc1ccccc1)C(=O)c1ccc(NC(=O)Cc2ccc(NC(=O)C3CCCN(C(=O)C4CCC4)C3)cc2)cc1 (configuration not stated)
78	NC1CCc2ccccc21 (configuration not stated)
79	CCCN(CCC)S(=O)(=O)c1ccc(N2CCCCS2(=O)=O)cc1
80	N#CCCN(C(=O)CSc1nnc(-c2ccncc2)n1C1CC1)c1ccccc1
Assay by compound	71	72	73	74	75	76	77	78	79	80
VACV mCherry inh	-2.4%	nt	-1.2%	18.1%	?	-18.3%	10µM*	27.6%	-3.7%	i
VACV Venus inh	-1.9%	-4.8%	0.6%	8.5%	-25.3%	-11.3%	?	-5.1%	-12.0%	-2.8%

Structures above with a nitro group on carbon:
11	O=C(Nc1ccc(Cl)cc1)N1CCCN(c2ccc(C(F)(F)F)cc2[N+](=O)[O-])CC1
14	Cc1c(NC(=O)c2nc3ccccc3nc2N2CCCCC2)cccc1[N+](=O)[O-]
21	COCc1cc(C)nc(N/N=C/c2ccc(-c3ccc(Cl)cc3[N+](=O)[O-])o2)c1C#N
28	COc1ccc(-c2noc(-c3ccc(NCCc4ccccc4)c([N+](=O)[O-])c3)n2)cc1
75	Cc1onc(-c2ccccc2Cl)c1C(=O)O/N=C(\N)c1cccc([N+](=O)[O-])c1
Assay by compound	11	14	21	28	75
VACV mCherry inh	i	-7.1%	-5.9%	-6.2%	?
VACV Venus inh	-17.0%	-2.1%	-1.8%	0.3%	-25.3%

(list continues)
81	CC(=O)N1CCC[C@H]1C(=O)NCC1Cc2cc(-c3cccc(OC(F)(F)F)c3)ccc2O1 (some centres not stated)
82	CS(=O)(=O)N(CC(=O)Nc1ccccc1C(=O)N1CCCC1)c1ccccc1Br
83	CCc1nc2ccc(C(=O)NCc3ccccc3OC)cn2c1N(C)Cc1ccc(OC)cc1
84	CC(=O)c1ccc(NC(=O)CSc2nc(=O)cc(N)n2-c2ccccc2)cc1
85	Cc1ccc(NC(=O)C2C3C=CC(O3)C2C(=O)O)cc1C (configuration not stated)
86	Cc1cc(NC(=O)c2ccccc2O)nc(C)n1
87	CCN(CC)C(=O)Cn1cc(SCC(=O)Nc2ccccc2C)c2ccccc21
88	O=C(NCCCN1CCN(c2ccccc2)CC1)Nc1ccccc1C(F)(F)F
Assay by compound	81	82	83	84	85	86	87	88
VACV mCherry inh	-0.6%	-11.1%	13.0%	-0.4%	-17.6%	-1.3%	-10.0%	nt
VACV Venus inh	-25.2%	-4.6%	-0.3%	-7.3%	-5.8%	-0.5%	-12.2%	?

4 entries from above, tab-delimited:
no.	SMILES	VACV mCherry inh	VACV Venus inh
83	CCc1nc2ccc(C(=O)NCc3ccccc3OC)cn2c1N(C)Cc1ccc(OC)cc1	13.0%	-0.3%
84	CC(=O)c1ccc(NC(=O)CSc2nc(=O)cc(N)n2-c2ccccc2)cc1	-0.4%	-7.3%
85	Cc1ccc(NC(=O)C2C3C=CC(O3)C2C(=O)O)cc1C (configuration not stated)	-17.6%	-5.8%
86	Cc1cc(NC(=O)c2ccccc2O)nc(C)n1	-1.3%	-0.5%

Screens (PubChem)
